gsp ag: gsp mutant agonism; Potency, µM (doses to about 76.9 µM), without a hit: top-dose activation (cAMP increase), actives largely listed as activators; gsp mutant cells, cAMP HTRF, 30 min; control for the full effect not named in the record; hit rate 0.13% among 340,000; active = well fitted activation curve with a large enough effect; inconclusive = small, poorly fitted or top-dose-only effect, or another doubt; inactive = no such curve, though single readings can be large or run the other way; cell line not stated here;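 note: phosphodiesterase inhibitor Ro 20-1724 added with compounds to block cAMP breakdown; potency is the fitted concentration of half-maximal effect; nearly all actives have a fitted effect of over 60% in size; about a fifth of the inactives were tested at one dose only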
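Cells stably selected in G418 were plated at 2000/well, grown 16-24 hr, then given compounds in DMSO with the PDE inhibitor […] (300 uM solution added) for 30 min at 37C; cAMP was read by HTRF.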
gsp antag: antagonists of gsp mutant (McCune-Albright syndrome). gsp-mutant cells, cAMP HTRF, 30 min; control for the full effect not named in the record. Potency, µM (top dose mostly 76.9 µM), without a hit: at the top dose activity change, negative = inhibition, usual class: inhibitors. hit rate 0.4% among 340,000; active = falling curve of any shape with a large fitted effect; inconclusive = falling curve, mostly with a smaller effect; inactive = flat or rising curve; cell line not stated here;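 note: intracellular cAMP measured with PDE inhibitor Ro 20-1724 present during compound exposure; potency is the fitted concentration of half-maximal effect; % is set by controls: 0 for no effect and ±100 for the full control effect; nearly all actives have a fitted effect of over 65% in size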
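Cells in G418 medium, seeded 16-24 h, 37C; buffer exchange to DPBS + 1 mM CaCl2, 0.5 mM MgCl2, 0.05% BSA; cpds in DMSO + […] (300 uM stock), 30 min 37C; HTRF cAMP detection.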
Menin-MLL FL inh: displaces fluorescein MLL peptide from human menin; Fluorescence polarization, fluorescein-MLL peptide displacement from menin; FP activity change, % at 61.4 µM; 290,000 tested, under 10 active; AID 1766; inconclusive = falling polarisation curve, or a change in total fluorescence; inactive = total fluorescence flat and polarisation flat or rising; no compound was filed as active; the % refers to the polarisation; negative = inhibition;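 note: % of control where 0% means no effect; inhibitors lower the polarisation; unlabelled MLL peptide was the positive control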
ClpP mod: qHTS Assay for Activators of ClpP | ATP-dependent Clp protease proteolytic subunit (Bacillus subtilis (strain 168)), P80244 | purified B. subtilis ClpP, FRET peptide cleavage, 20 min | Potency, µM (titrated, usually from 57.5 µM), for inactives: top-dose activity change, negative = active | hit rate 1.9% among 340,000; active = well fitted falling curve with a large enough effect; inconclusive = small, poorly fitted or top-dose-only effect; inactive = no such curve, though single readings can be large or run the other way; note: potency is the fitted concentration of half-maximal effect; the source files actives as falling curves though it sought activators and does not explain the sign; nearly all actives have a fitted effect of over 65% in size; many hits overshoot -100%
Target sequence (P80244 whole entry, looked up): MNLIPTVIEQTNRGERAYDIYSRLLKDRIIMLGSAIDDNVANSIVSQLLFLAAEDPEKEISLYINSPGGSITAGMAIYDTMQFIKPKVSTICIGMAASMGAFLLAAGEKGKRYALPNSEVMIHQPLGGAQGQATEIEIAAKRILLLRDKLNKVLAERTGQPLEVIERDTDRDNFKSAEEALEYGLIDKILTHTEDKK
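FRET quenching reversal measured ClpP activation: 10 microg/mL B. subtilis ClpP at pH 8 with the FRET-FV decapeptide, read at 430 nm after 320 nm excitation. The 20-min minus 0-min signal was scaled between DMSO/no-enzyme wells and ADEP (5.8 microM final).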
TRPML1 ag: human mucolipin-1 channel agonism. TRPML1-expressing cells, Ca2+ dye fluorescence, FDSS; host cell line not named in the record; reference of the full effect not given here. hit rate 0.12% among 410,000. activation, % (no concentration beside the values); in the data active = activation above about 50%; inconclusive = about 30% to 50%; inactive = below about 30%; note: 0% is about no effect; the text of the record puts the active cut at 80%
Target sequence (Q9GZU1 whole entry, looked up): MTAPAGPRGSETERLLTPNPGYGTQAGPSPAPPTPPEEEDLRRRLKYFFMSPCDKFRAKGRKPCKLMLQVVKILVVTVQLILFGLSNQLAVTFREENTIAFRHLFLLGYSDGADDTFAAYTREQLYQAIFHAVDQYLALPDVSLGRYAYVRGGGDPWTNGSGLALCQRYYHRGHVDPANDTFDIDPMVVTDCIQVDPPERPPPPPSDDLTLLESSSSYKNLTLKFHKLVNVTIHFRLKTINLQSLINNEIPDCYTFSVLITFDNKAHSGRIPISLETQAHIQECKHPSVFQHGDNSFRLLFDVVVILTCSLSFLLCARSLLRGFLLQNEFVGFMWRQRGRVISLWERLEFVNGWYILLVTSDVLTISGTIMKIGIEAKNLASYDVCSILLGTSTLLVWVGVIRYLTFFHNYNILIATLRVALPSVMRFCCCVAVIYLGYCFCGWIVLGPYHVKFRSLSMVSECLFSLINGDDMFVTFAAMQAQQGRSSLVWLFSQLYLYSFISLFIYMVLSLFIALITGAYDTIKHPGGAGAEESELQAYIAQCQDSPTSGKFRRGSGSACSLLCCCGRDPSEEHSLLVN
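Tet-induced TRPML1-DL cells, 1,500 per well, cultured overnight, were loaded with a no-wash Ca2+ dye for 45–90 min. Calcium fluorescence was recorded on the FDSS for 110 s after compound addition, before the EC80 agonist (4 uM 54-4) was added.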
TRPML1 blocker: blocks the human TRPML1 channel; Q9GZU1; TRPML1-inducible cells, Ca2+ dye fluorescence, FDSS; hits give low values; inhibition of EC80 agonist-evoked calcium signal; activity change, negative = inhibition, % (concentration not given with the values); hit rate 0.02% among 390,000; AID 624415; in the data active means activity change below about -50%; inconclusive means about -30% to -50%; inactive means above about -30%;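 note: stimulus is agonist 54-4 at its EC80 concentration; % is set by controls: 0 for no effect and ±100 for the full control effect; compound concentration not given in the record; the text of the record puts the active cut at -80%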
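TRPML1-DL cells, Tet-induced overnight (~16 h, 37 °C) at 1,500 cells/well, were loaded with Ca8 no-wash dye plus quencher for 45-90 min at room temperature. Compounds were pinned during FDSS kinetic reading; agonist 54-4 at EC80 (4 uM final) then added.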
The depositor's hits bear a star; ? = inconclusive; · = not tested or not shown; & = joins results of further samples; [ ] = remark or other dose. The order is random, and some 2.1% of all compounds hit somewhere here.

mol,gsp antag,gsp ag,TRPML1 ag,ClpP mod,Menin-MLL FL inh,TRPML1 blocker
COc1ccc(NC2CCCN(C(=O)c3oc(C)cc3C)C2)cc1OC (stereo not drawn),-9%,?,0.8,-2.7%,·,2
O=C(COc1ccccc1Cl)c1ccc[nH]1,2%,-5%,1.7,·,-7.6,33
CC(C)c1ccc(C(=O)NCCCN2CCN(CCCNC(=O)c3ccc(C(C)C)cc3)CC2)cc1,19%,10%,0.8,-0.1%,13,16
O=S(=O)(NCc1ccccc1)c1ccc(S(=O)(=O)N(Cc2ccccn2)Cc2ccco2)cc1,0%,-1%,2.9,-3.0%,3.4,-8
Cn1c(C(=O)N2COCC2(C)C)cc2c(=O)n3ccccc3nc21,14%,?,-0.5,75%,3.7,-6
O=C1NC[C@H](Cc2ccccc2)N(C[C@H]2CCCN2C[C@H](Cc2ccc(O)cc2)N2C[C@H](Cc3ccc(O)cc3)N(CC3CCCCCC3)C(=O)C2=O)C1=O,-21%,·,0.3,-0.1%,·,-4
Cc1cccc(NC(=S)N2CCC(C(=O)c3ccc(F)cc3)CC2)c1C,-24%,-7%,0.6,-0.1%,2.7,21
Cn1c(CNC(=O)C(Cc2ccccc2)NC(=O)c2ccccc2)cc(=O)n(C)c1=O (stereo not drawn),-2%,-33%[inhibitor],-0.5,-0.5%,0.0,-8
Cc1nc(C#N)c(N/N=C/c2cccc(Cl)c2)o1,5%,-110%[inhibitor],-0.4,1.9%,4.2,-20
CNc1nc(OCC(F)(F)F)nc(OCC(F)(F)F)n1,1%,26%[15.4 µM],0.9,·,·,-2
O=C(Nc1ccccc1)c1ccc2ccccc2n1,-14%,16%,-0.3,-3.2%,0.3,24
COCCN1C(=O)c2[nH]nc(-c3c(C)cc(C)cc3O)c2C1c1cccc(O)c1 (stereo not drawn),·,·,5.1,-1.5%,·,8
CC1(C2CC2)NC(=O)N(CC(=O)Nc2ccc(C(F)(F)F)cc2)C1=O (stereo not drawn),-1%,-3%,0.1,-0.6%,·,0
Cc1cccc(NC(=O)c2cc3n(n2)C(C(F)(F)F)CC(c2ccc4c(c2)OCO4)N3)c1 (stereo not drawn),-8%,0%,1.4,-2.0%,11,-19
COc1ccc(-c2cccc(C3CC=CC4C3C(=O)N(Cc3ccccc3)C4c3ccc4ccccc4c3)c2)cc1 (stereo not drawn),8%,·,0.1&0.2,-9.9%,7.5&1.4,-2&3
O=C(Cn1c(=O)oc2ccccc21)Nc1ccc(Cl)cc1Cl,3%,?,2.6,1.5%,-1.4,10
O=C(O)c1cc(-c2ccccc2)n(-c2ccccc2)n1,-16%,-5%,-0.3,-1.3%,0.4,-5
CCCC(=O)N(c1ccc2oc(=O)sc2c1)S(=O)(=O)c1ccccc1,-8%[15.4 µM],16%,1.5,-3.0%,6.0,-7
COc1ccc(Cn2ccnc2CO)cc1[N+](=O)[O-],4%,-23%,-0.4,·,8.3,10
Cc1cc(NS(=O)(=O)c2ccc(NC(=S)NCc3ccccc3)cc2)no1,7%,?,0.2,·,3.3,1
COc1cc(C(=O)N/C(=C\c2cn(C)c3ccccc23)C(=O)N2CCN(C)CC2)cc(OC)c1OC,-2%,-3%,1.6,1.5%,1.0,-1
CC(=O)N1CCOc2cc(S(=O)(=O)Nc3cc(C(F)(F)F)ccc3Cl)c(C)cc21,·,·,-0.2,-4.5%,·,-4
CC1(C)C2([N+](=O)[O-])CN3CC1([N+](=O)[O-])CN(C2)C3C(O)C(O)C(O)CO (stereo not drawn),2%,-37%[15.4 µM],1.0,·,1.8,-9
Cc1ccc(Cl)cc1NC(=O)c1sc2nc(C)c(C)c(C)c2c1N,·,·,1.4,?,·,7
O=S(=O)(Cc1ccccc1)CS(=O)(=O)Cc1ccccc1,6%,29%,-0.2,·,·,0
Cc1ccc(C)c(N2CCN(S(=O)(=O)c3ccc(-c4cc(C(F)(F)F)on4)s3)CC2)c1,·,·,-0.1,-1.2%,·,22
CC(C)(C)c1ccc(C(=O)O)c(C(=O)c2ccccc2)c1,-38%,1%[15.4 µM],0.2,·,0.6,2
CSc1ncccc1C(=O)OCC(=O)c1ccc(Cl)s1,·,13%,1.0,4.6%,·,-15
CCOc1cc(C(=O)NCC(C)(C)CNC(=O)c2cc(OCC)c(OCC)c(OCC)c2)cc(OCC)c1OCC,?,-16%,0.7,3.8%,·,6
CCO[C@@H]1OC(C(=O)NCc2ccccc2)=C[C@H](c2ccc3c(c2)OCO3)[C@H]1CCCO,-10%,·,-0.4,-0.9%,-6.3,-10
N#CCC(=O)c1ccccc1Oc1ccc(Cl)cc1,0%,9%,0.4,0.7%,3.6,2
O=C1CN(C(=O)COC(=O)c2ccccc2O)c2ccccc2N1,8%,-19%[15.4 µM],-0.7,·,0.5,7
COc1ccc(-c2ccc([C@H]3[C@@H]4C=CCC[C@@]4(C)C(=O)N3Cc3ccccc3)c(F)c2)cc1,-8%,·,1.4,?,3.3,77
Cc1cccc(Nc2nc(N)nc(CSC(=S)N3CCOCC3)n2)c1,-15%,2%,0.0,1.8%,1.4,37
CCOc1ccc(-c2cc3nc(C4CCN(C(=O)OC(C)(C)C)CC4)c(C(=O)O)cn3n2)cc1,-23%,-1%,3.6,?,4.1,-5
CCOC(=O)CSC1=N/C(=C\c2cc(OC)c(OC)c(OC)c2)C(=O)N1C,8%,-7%[15.4 µM],-0.5,0.4%,2.5,4
CCOC(=O)N1CCC(n2c(SCC(=O)NCCc3ccc(S(N)(=O)=O)cc3)nc3ccccc3c2=O)CC1,16%,-23%[15.4 µM],-0.1,?,1.5,39
CC1CCCN(c2nc3ccccc3nc2C(C#N)S(=O)(=O)c2cccs2)C1 (stereo not drawn),?,7%,-0.3,-1.9%,?,-3
COc1ccc(CNC(=O)COc2cccnc2[N+](=O)[O-])cc1OC,9%,25%,1.7,-2.3%,0.4,-8
O=c1[nH]cc(CCCc2ccccc2)c(=O)[nH]1,·,-30%[inhibitor],-0.1,-0.8%,·,-10
Cc1cc(C)cc(-c2nnc(SCC(=O)N3CCN(C(=O)c4ccco4)CC3)o2)c1,-18%,-6%,0.5,1.4%,1.5,14
O=C(NCCc1ccccc1)C(=O)NCC1CCCO1 (stereo not drawn),7%,-77%[inhibitor],-0.2,-5.9%,0.9,0
COc1ccc(CCNS(=O)(=O)c2cccc3cccnc23)cc1OC,2%,7%,0.8,-0.1%,-1.0,-2
COc1cc(CNCCCN2CCOCC2)cc(Br)c1OCC(=O)N1CCCCC1,11%,-3%,-0.1,0.2%,-0.8,1
CN(C)c1ccc(C(=O)NC2(N3CCC3=O)CCCC2)cc1,-8%,-40%[inhibitor],-0.7,-8.3%,-1.3,3
CC1=CC(=O)[C@H]2C(C)(C)CCC[C@]2(C)[C@@]1(O)CO,3%,·,·,-1.4%,-0.7,·
Cc1cc(C)nc(NC(=O)C(C)N2C(=O)c3ccccc3C2=O)n1 (stereo not drawn),17%,-18%,1.7,-3.5%,0.3,-12
COc1cccc(C(=O)COc2ccc3c(C)cc(=O)oc3c2)c1,6%,?,0.6,?,-2.9,-15
O=C(NCCN1CCOCC1)C1CCN(S(=O)(=O)N2CCCC2)CC1,5%,3%,0.5,-3.3%,-3.4,-2
Cc1ccc(C(=O)COC(=O)c2cc(-c3cccs3)nc3ccccc23)cc1,·,·,-0.8,?,·,11
Cc1nc2ccccc2nc1OCC(=O)Nc1ccc(F)cc1,·,4%[15.4 µM],-0.8,·,0.4,-22
CCn1c(=O)c(C(=O)NCc2cccnc2)c(O)c2ccccc21,4%,5%,1.0,-6.9%,-1.7,12
COC(=O)C1(NC(=O)NC2CCCCC2)CCCCC1,-6%,10%[15.4 µM],-0.5,-0.2%,-0.8,25
CN(C)CC(O)COC(c1ccccc1)c1ccccc1 (stereo not drawn),8%,1%,0.3,·,-1.1,-27
CC(=O)c1cccc(N2C(=O)CC(N3CCN(S(=O)(=O)c4ccccc4F)CC3)C2=O)c1 (stereo not drawn),-8%,12%,1.1,·,·,-7
O=C(N/N=C1\CCc2ccccc21)c1ccc(O)cc1,-8%,-27%[15.4 µM],-0.1,1.3%,8.3,0
Cc1ccc(Nc2nc(N)nc(CN3CCN(C(=O)c4ccco4)CC3)n2)cc1Cl,-5%,-11%,1.0,-1.3%,4.6,-12
CC(=O)c1c(C)oc2ccc(NS(=O)(=O)c3ccccc3)cc12,-5%,-1%[15.4 µM],-0.5,·,-4.5,14
CCN(C(=O)c1cc2c(Cl)nc3ccc(C)cc3c2s1)c1cc(OC)ccc1OC,·,·,-0.1,-0.2%,·,30
Cc1ccccc1/C(N)=N/OC(=O)N1c2ccccc2Sc2ccccc21,?,-26%,0.2,-0.4%,0.0,25

The listing continues:
mol,gsp antag,gsp ag,TRPML1 ag,ClpP mod,Menin-MLL FL inh,TRPML1 blocker
C[C@H](CO)N1C[C@H](C)[C@@H](CN(C)S(C)(=O)=O)Oc2ccc(NC(=O)c3ccncc3)cc2C1=O,11%,?,-0.4,-0.4%,·,-8
CCCN1c2cccc3cccc(c23)S1(=O)=O,-26%,-25%,0.3,?,2.2,-7
CCC(C)N(C(=O)COC(=O)CN=C1NS(=O)(=O)c2ccccc21)C1CCS(=O)(=O)C1 (stereo not drawn),10%,-10%,0.0,-0.8%,·,1
Cc1nnsc1C(=O)Nc1ccc(S(=O)(=O)N2CCC(C)CC2)cc1,8%,-3%,-0.2,-0.4%,2.8,-5
CC(C)Nc1c(N)c(=O)oc2ccccc12,-6%,-18%,-0.1,0.8%,8.4,0

High-throughput results as filed in PubChem.
